Screening data deposited in PubChem BioAssay by several laboratories.
Rce1 inh = yeast Rce1p protease inhibitors, primary screen, biochemical, fluorescence, cell-free homogeneous. yeast membranes, quenched prenylated peptide cleavage fluorescence. calls only. 290,000 tested, 0.27% active. AID 2563, 2010;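 active = fall in fluorescence gain of 50% or more versus controls, with final raw signal at or below 3038400; inconclusive = same 50% fall but final raw signal above 3038400; inactive = fall in fluorescence gain under 50%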;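 note: plate controls were neutral control wells for no effect and wells lacking membranes for full effect; tested at 10 µM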
Target sequence (Q03530 whole entry, looked up): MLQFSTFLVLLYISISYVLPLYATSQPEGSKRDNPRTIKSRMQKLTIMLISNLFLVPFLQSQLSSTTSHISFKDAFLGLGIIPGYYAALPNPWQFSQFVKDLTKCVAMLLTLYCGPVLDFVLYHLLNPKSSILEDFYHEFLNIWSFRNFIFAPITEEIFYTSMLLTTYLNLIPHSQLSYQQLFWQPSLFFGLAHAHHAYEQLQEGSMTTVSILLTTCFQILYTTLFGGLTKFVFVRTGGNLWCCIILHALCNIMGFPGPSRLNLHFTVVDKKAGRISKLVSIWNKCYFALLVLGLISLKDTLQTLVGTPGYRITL
Yeast UUG start = modulators of yeast start codon fidelity, primary screen, whole organism, S. cerevisiae, single point, plate reader; S. cerevisiae UUG-firefly luciferase reporter, luminescence/redox ratio; activity score, % at 18.7 µM; 350,000 tested, 0.13% active; AID 602363, 2012;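 active = replicate mean at a twofold rise or more, about +100% in these data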;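 note: firefly luciferase made from a UUG start codon reports start codon fidelity; reporter light over untreated wells divided by growth signal over untreated wells; some hits fall short of that in this replicate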
eIF4H inh = human eIF4H binding inhibitors, primary screen, translation initiation inhibitor project, biochemical, uHTS, fluorescence polarization | Eukaryotic translation initiation factor 4H (Homo sapiens), Q15056 | eIF4H fluorescence polarization binding assay | 290,000 tested, 0.94% active | AID 2012, 2009 | inhibition, % at 35 µM;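 active = 50% or more with normal probe brightness, or confirmed in later tests; inconclusive = above 50% with abnormal brightness, or retests that disagree; inactive = below 50% or failed in later tests; about a fifth of its hits are not listed in these tables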;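 note: calls also rest on retests at 20 µM and on dose response follow-up; 0% = protein and probe with vehicle and 100% = probe without protein; strong numbers were not always called active; many hits fall short of the cut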
CSC inhib = cancer stem cell viability inhibitors, primary screen, luminescence. inhibition, % at 7.5 µM. 300,000 tested, 1.1% active. cancer stem cell-like cells viability. AID 2717, 2010;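 active = mean at 75% or more and at least half the replicates too; inconclusive = mean and replicates disagree; tested in HMLE shEcad cells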;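 note: 0% = median of negative and 100% = median of positive control wells; the first replicate is given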
Env fusion inh = inhibitors of HIV-1 Env-driven cell-cell fusion, primary screen, HeLa-JRFL effector, CEM21 target cells, luciferase; 360,000 tested, 1.1% active; inhibition, % at 12.3 µM; AID 651610, 2012;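 active = mean replicate inhibition score of at least 50 and every replicate individually at or above 50; inconclusive = only one of the two criteria met; inactive = mean below 50 and not all replicates reaching 50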;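 note: 0% = plate neutral controls and 100% = maraviroc near 300 nM; one replicate is shown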
MT1-MMP act inh = blockers of MT1-MMP proenzyme processing, primary screen, HT1080 RFP-PRO-GFP cells, GFP/RFP fluorescence | GFP/RFP ratio fluorescence, overnight; percent of plate control window, DMSO zero | AID 651647, 2012 | GFP/RFP ratio change, % at 20 µM | 360,000 tested, 0.061% active | Matrix metalloproteinase-14 (Homo sapiens), P50281;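 active = GFP/RFP ratio change of at least 30% with cell ATP level not reduced by more than half and red fluorescence within 50% of control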; note: strong numbers were not always called active
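Test system: HT1080 cells expressing an RFP-PRO-GFP fluorescent reporter construct / Compound dosing: single-point 20 µM compound, 1% DMSO / Schedule: cells overnight before dosing, compound overnight, 37 °C, 5% CO2 / Evaluation: GFP/RFP fluorescence ratio / Control set: DMSO and RFP-L50D-GFP cell wells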
PABP FP inh = PABP poly(A) RNA binding inhibitors, primary screen, biochemical, fluorescence polarization, uHTS; 290,000 tested, 1% active; inhibition, % at 35 µM; Polyadenylate-binding protein 1 (Homo sapiens), P11940; AID 2014, 2009;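 active = 50% or more with normal probe brightness, or confirmed in later tests; inconclusive = above 50% with abnormal brightness, or retests that disagree; inactive = below 50% or failed in later tests; about a fifth of its hits are not listed in these tables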;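 note: calls also rest on retests at 20 µM and on dose response follow-up; controls were probe without protein and protein plus probe with vehicle; some compounds called inactive have numbers as strong as hits; many hits fall short of the cut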
Target sequence (P11940 whole entry, looked up): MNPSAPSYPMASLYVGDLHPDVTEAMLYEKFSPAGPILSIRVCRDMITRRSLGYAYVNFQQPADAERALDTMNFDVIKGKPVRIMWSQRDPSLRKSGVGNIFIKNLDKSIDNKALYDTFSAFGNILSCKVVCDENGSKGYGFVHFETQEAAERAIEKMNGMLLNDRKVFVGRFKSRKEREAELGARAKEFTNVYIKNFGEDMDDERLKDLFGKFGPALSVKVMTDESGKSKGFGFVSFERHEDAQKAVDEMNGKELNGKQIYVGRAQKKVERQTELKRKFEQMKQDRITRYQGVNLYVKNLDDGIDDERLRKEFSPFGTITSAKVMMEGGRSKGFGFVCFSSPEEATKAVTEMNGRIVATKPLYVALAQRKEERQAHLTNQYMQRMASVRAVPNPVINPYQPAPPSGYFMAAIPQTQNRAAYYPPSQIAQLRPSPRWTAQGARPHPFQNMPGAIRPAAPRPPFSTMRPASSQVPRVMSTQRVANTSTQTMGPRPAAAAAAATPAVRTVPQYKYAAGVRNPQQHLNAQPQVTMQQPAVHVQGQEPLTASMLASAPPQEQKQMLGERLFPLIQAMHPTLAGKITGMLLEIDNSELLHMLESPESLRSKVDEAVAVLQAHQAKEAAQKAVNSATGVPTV
MT1-MMP act inh RFP = also measured in MT1-MMP act inh; calls as there; RFP signal change, %; measured here: RFP expression control read;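 0 = vehicle wells; hits needed this value within 50% of zero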
* = called active by the depositor; i = inactive; ? = inconclusive; / = no result given.

Values in the order – MT1-MMP act inh RFP | Yeast UUG start | eIF4H inh | PABP FP inh | MT1-MMP act inh | Rce1 inh | Env fusion inh | CSC inhib
- CCc1cc2c(=O)c(-c3nc4ccccc4n3C)c(C)oc2c(CN2CCN(C)CC2)c1O
  / | / | 0 | -15 | / | i | / | -12
- CC(=O)c1cccc(OCC(O)CNCCc2ccc(Cl)cc2)c1 (centres undefined)
  4 | -10 | 15 | 16 | 1 | i | 11 | 13
- NC(=O)C1CCN(C2=C(NS(=O)(=O)c3ccc(Cl)cc3)C(=O)c3ccccc3C2=O)CC1
  2 | / | -8 | 11 | 4 | i | -4 | 22
- CC(=O)N1c2ccccc2C2(O)N=C(C)SC12 (centres undefined)
  2 | / | -6 | 3 | -2 | i | / | -8
- CCN(CC)S(=O)(=O)c1cccc(NC(=O)COC(=O)CCC(=O)c2ccc(F)cc2)c1
  5 | / | 1 | 7 | 2 | i | / | /
- CCN(CC(=O)NCc1ccc(Cl)cc1)C(=O)c1ccc2cc(OC)ccc2c1
  -14 | -18 | 6 | 3 | -2 | i | 10 | 7
- O=C(Nc1nncs1)c1ccc(F)c(S(=O)(=O)N2CCCCC2)c1
  1 | -20 | -9 | 6 | 0 | i | 7 | /
- C=C1CCC2[C@](C)(CO[C@@H]3O[C@H](CO)[C@@H](O)[C@H](O)[C@H]3O)CCC[C@@]2(C)[C@@H]1CCC1=CCOC1=O (some centres undefined)
  1 | -12 | / | / | 3 | / | / | -11
- COCCn1nnnc1C(c1cccs1)N1CCCC(C)C1 (centres undefined)
  1 | -10 | -3 | -4 | -1 | i | 14 | -8
- O=c1c(Cl)c(NCc2ccccc2Cl)cnn1C12CC3CC(CC(C3)C1)C2
  -13 | / | -4 | 14 | -18 | i | / | 95*
- COc1ccc(NC(=O)CCCn2nc(C)c3c(C)n(-c4ccccc4)nc3c2=O)cc1OC
  3 | 16 | -15 | -6 | 4 | i | -6 | -15
- COc1ccc(NC(=O)C(=O)N/N=C/c2cccnc2)c(OC)c1
  0 | -24 | -4 | 1 | 3 | i | / | 3
- O=S(=O)(NC1CCN(Cc2ccccc2)CC1)c1ccc2ccccc2c1
  1 | / | -5 | 3 | 3 | i | 8 | -1
- Cc1ccc(S(=O)(=O)/N=C2\C=C(Nc3cccc(C(=O)O)c3)C(=O)c3ccccc32)cc1
  -8 | -20 | 0 | 26 | 30 | i | -28 | /
- O=C(NCC(c1cccnc1)N1CCOCC1)NC1CCCCC1 (centres undefined)
  -3 | / | -11 | -9 | -1 | i | -36 | -5
- CCC/C(=N\NC(=O)Cc1csc(N2CCOCC2)n1)c1ccccc1
  9 | / | -7 | 1 | 12 | i | 18 | /
- CCn1c(SCc2nc3ccccc3[nH]2)nnc1-c1ccc(OC)cc1
  -9 | -23 | -6 | 1 | -6 | i | / | 1
- CC(=O)/C=C(\C)NCCNc1c(F)c(F)c(CO)c(F)c1F
  -1 | -17 | -2 | 1 | 2 | i | / | 3
- COc1cccc(CNc2nc(NCc3ccccc3OC)nc3ccsc23)c1
  -25 | -30 | / | / | 0 | / | 72* | /
- CC(C)CN(CC(C)C)C(=O)CCCC(=O)N(CC(C)C)CC(C)C
  3 | / | -1 | -9 | -1 | i | -5 | -18
- COc1ccc2ccn(C)c2c1
  5 | 10 | / | / | -1 | / | -10 | 8
- CCCCN(C=O)c1c(CC)nc2ccc(C(=O)N3CCN(S(=O)(=O)CC)CC3)cn12
  4 | -15 | / | / | 0 | / | -4 | /
- CSc1ccc(C(=O)C2CCCN(Cc3cccc4nccnc34)C2)cc1 (centres undefined)
  -2 | / | -3 | 2 | -1 | i | 7 | 55
- C=CCn1c(SCC(=O)NC2CC2)nc2ccccc2c1=O
  0 | -7 | / | / | -2 | / | / | -3
- Fc1ccc(NC(=S)NC2CCCCC2)c(F)c1F
  -17 | -23 | -6 | 23 | -9 | i | 42 | -1
- COc1cccc(CN(CC2CCCO2)S(=O)(=O)c2ccc(S(=O)(=O)N(C)C)cc2)c1 (centres undefined)
  -4 | -14 | -3 | -12 | -2 | i | 35 | 2
- Cc1cccc(NC(=O)CN2C(=O)N/C(=C/c3cc(C)n(-c4ccncc4)c3C)C2=O)c1
  6 | -13 | 35 | 24 | 4 | i | 17 | 6
- COc1ccc(-c2ccc(C(=O)Nc3cccc(C(C)=O)c3)c3occc23)c(C)c1
  -21 | 4 | / | / | -7 | / | -34 | /
- CC(C)n1nc(C(=O)N2CCN(S(=O)(=O)c3cccs3)CC2)c2ccccc2c1=O
  / | / | 0 | -11 | / | i | 0 | -9
- O=c1[nH]c(=O)c2nc3ccccc3nc2[nH]1
  2 | -7 | / | / | -2 | i | -9 | 15

The closing 2 records of the section before come first, to join the parts.
Values in the order – MT1-MMP act inh RFP | Yeast UUG start | eIF4H inh | PABP FP inh | MT1-MMP act inh | Rce1 inh | Env fusion inh | CSC inhib
- CC(C)n1nc(C(=O)N2CCN(S(=O)(=O)c3cccs3)CC2)c2ccccc2c1=O
  / | / | 0 | -11 | / | i | 0 | -9
- O=c1[nH]c(=O)c2nc3ccccc3nc2[nH]1
  2 | -7 | / | / | -2 | i | -9 | 15
- Cc1cc(/C=N/NC(=O)c2c(Br)cnn2C)c(C)n1-c1cccc(Br)c1
  5 | / | -1 | -5 | 1 | i | / | -4
- Cc1ccc(NC(=O)Cc2nc(CN(C)CC(=O)Nc3ccc(C)cc3)cs2)cc1
  -4 | -6 | / | / | 2 | / | 4 | /
- Cc1ccc(-c2c(C)cc3oc(=O)cc(-c4ccccc4)c3c2C)cc1
  -6 | -10 | / | / | 0 | / | -101 | /
- C=CCN1CCN(C(c2ccccc2)c2nnnn2CCC(C)C)CC1 (centres undefined)
  1 | -16 | 15 | 23 | -1 | i | -95 | -3
- COC(=O)[C@@H]1C[C@H]2CC[C@H](O)C[C@H]2N1Cc1ccc(N2CCN(C)CC2)cc1
  3 | -6 | -6 | -5 | 1 | i | 12 | -7
- COc1cccc(CNC(=O)C2CCCN(c3nn4c(=O)cc(C)nc4s3)C2)c1 (centres undefined)
  7 | -11 | -5 | 4 | 6 | / | / | -12
- CCCCCCCCCCCCN1[C@@H](CC(=O)OC)c2cc(C(F)(F)F)ccc2S1(=O)=O
  -7 | 22 | / | / | 1 | i | 18 | 32
- CCOc1ccccc1Nc1nc(N)nc(CN2CCCCC2C)n1 (centres undefined)
  -4 | -14 | 0 | -8 | -2 | i | -24 | -3
- CCOc1cc(C2CC(=O)NC3=C2C(=O)C(C(=O)OC)C(C)C3)cc(Br)c1O (centres undefined)
  4 | -6 | -8 | -2 | -3 | i | / | -14
- CC(C)NC(=O)C1(c2ccccc2)CC1(Cl)Cl (centres undefined)
  7 | / | -8 | -6 | 1 | i | -40 | -11
- CN(C)C(=O)c1ccccc1-c1ccccc1
  -3 | -11 | -7 | -9 | 0 | i | 9 | -2
- COc1cccc(CN(C)C(=O)c2sccc2-c2ccccc2)c1OC
  2 | 3 | -7 | 11 | -4 | i | -75 | 1
- CCSc1nc2ccc(C)cc2cc1C#N
  3 | -14 | -6 | -5 | 3 | i | -34 | 11
- COc1ccc(NC(=S)NCCN2CCOCC2)cc1
  0 | / | 0 | -5 | 0 | i | -14 | 4
- COc1ccccc1/C=C/C1NC(=O)NC(C)=C1C(=O)OC(C)C (centres undefined)
  -2 | -3 | -3 | -6 | 3 | i | 13 | -11
- O=C(Nc1c2c(nn1-c1ccc([N+](=O)[O-])cc1)CS(=O)(=O)C2)C1CC1
  4 | -9 | -3 | 0 | 1 | i | -2 | -10
- Cc1ccc(CNc2ccc3c(c2)nc(C)n3C)cc1
  1 | -28 | -8 | 7 | 3 | i | -26 | -10
- COc1ccc(-c2[nH]c(-c3ccc(C(=O)O)cc3)nc2-c2ccccc2)cc1
  -1 | 5 | 1 | 14 | 1 | ? | 4 | -3
- CCOC(=O)C1=C(C)Nc2ccccc2N=C1NC(=O)Cc1ccc(OC)cc1
  2 | -13 | -3 | -8 | 0 | i | / | -3
- Cc1ccccc1CNC(=O)c1ccc2ccccc2n1
  1 | 4 | -5 | -9 | -1 | i | 2 | /
- O=C(Nc1cccnc1)C1(c2ccccc2)CCCC1
  -5 | -12 | -9 | -7 | -6 | i | / | 4
- CC(=O)/C(=N/Nc1ccc(Br)cc1)Sc1cccc2cccnc12
  5 | / | 4 | 8 | 5 | i | -7 | /
- CCCNC(=O)C1(C)CCCN(C(=O)/C=C/c2ccccc2)C1 (centres undefined)
  2 | -12 | / | / | -6 | / | 10 | /
- CCCCn1c(NCc2ccccn2)nc2ccccc21
  0 | -21 | 6 | -2 | 3 | i | 25 | -8
- CCN1CCN(c2ccc(S(=O)(=O)N3CCCCC3)cc2NC(=O)/C=C/c2ccc(OC)c(OC)c2)CC1
  0 | -12 | / | / | 8 | i | 5 | 12
- COC(=O)COC(=O)c1ccc(O)cc1
  0 | -18 | 3 | 4 | 5 | i | -25 | -4
- Cc1ccc(NC(=O)C2CC(=O)OC23CCOC(C)(C)C3)cc1 (centres undefined)
  0 | -13 | -1 | 10 | 1 | i | -14 | -8
- Nc1nc(N2CCN(Cc3ccccc3)CC2)n[nH]1
  3 | -32 | -15 | -5 | -2 | i | 5 | -4
- COCCSc1nnc(NC(=O)COc2ccc3c(c2)OCO3)s1
  5 | -9 | 4 | 8 | 1 | / | 4 | 1
- Cc1cc(C(=O)OCC(=O)N2CCOCC2)c2ccccc2n1
  3 | 4 | -4 | 1 | -12 | i | -94 | -3

Later entries.
Values in the order – MT1-MMP act inh RFP | Yeast UUG start | eIF4H inh | PABP FP inh | MT1-MMP act inh | Rce1 inh | Env fusion inh | CSC inhib
- N#CC1=C2SCC(O)(c3ccccc3)N2C(=O)CC1c1cccs1 (centres undefined)
  -12 | -4 | 3 | -2 | -1 | / | / | /
- CC(=O)c1cnc2cc(-c3ccc(C)cc3)nn2c1C
  0 | -13 | -4 | -1 | 2 | i | -139 | -6
- COC(=O)Cn1c(=NC(=O)CSC(C)=O)sc2ccccc21
  -3 | 1 | -15 | -7 | 2 | i | / | -6
- COc1cc(-c2cc(C(=O)Nc3ccc(O)cc3)c3ccccc3n2)cc(OC)c1OC
  -4 | / | -5 | 2 | 3 | i | 22 | 27
- CCn1c(=O)n(CC(=O)N2CC(C)CC(C)C2)c(=O)c2ccccc21 (centres undefined)
  -3 | -6 | -1 | -2 | 4 | i | -12 | -4
- COc1ccc(C(CNC(=O)CCC(=O)c2ccc(C)s2)N2CCOCC2)cc1 (centres undefined)
  5 | 10 | / | / | 2 | / | / | -9
- COc1ccc(Cl)cc1NC(=O)c1cccc(NC(=O)CCC(=O)O)c1
  -1 | -3 | -8 | 2 | 0 | i | -3 | -6
- O=C(CN1CCC(n2cnc3cc(F)ccc32)CC1)Nc1ccccc1Br
  7 | / | -4 | 0 | 2 | / | -13 | 61
- O=C(N/N=C/c1cccc([N+](=O)[O-])c1)c1cc2ccccc2o1
  4 | / | -16 | -4 | 3 | i | -3 | -12
- Cc1cc(NC(=O)CSc2nnc(-c3ccc(O)cc3)o2)no1
  0 | -8 | -9 | 0 | 5 | i | -2 | /

The list is partial; the hit share may differ from the screen's.
